Source: PubChem (Broad Institute)
rRNA inh HTS: reduced GFP signal of wild-type E. coli, primary screen, bacterial rRNA inhibitor project, GFP/RFP fluorescence, OD600, single point. E. coli WT GFP vs humanized-ribosome RFP mutants, 24 h; active compounds read low; DMSO median 0, no signal -100. GFP signal change (wild-type ribosome), % (no concentration beside the values). 350,000 compounds, 1.6% hits;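 active means significant combined selectivity score with lowered wild-type GFP, culture density cut under 30%, mutant RFP and density less affected; inactive means any of these conditions unmet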; further: one replicate is shown; some compounds called inactive have numbers as strong as hits
Calb FLC: C. albicans growth inhibition with fluconazole, primary screen, CaCi-2 strain, Alamar Blue fluorescence | C. albicans CaCi-2 (fluconazole-resistant clinical isolate) + fluconazole, 48 h | growth inhibition, % (test concentration not listed) | 300,000 compounds, 0.57% hits | AID 1979, 2009;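 active means most replicates above 75%; inconclusive means exactly half above 75%; inactive means most below 75%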;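 further: all wells also contain fluconazole at 8 µg/ml as a sub-toxic cotreatment; 0% = median of DMSO wells and 100% = median of geldanamycin control wells; wells of about 8 µL received 7.5 nL stock; the first replicate is given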
RanGTP-Impb inh: inhibitors of RanGTP-importin-beta interaction, primary screen, biochemical, FRET, CFP-Ran, YFP-importin-beta, homogeneous. Ran GTPase (GTP-bound) - importin-beta complex. cell-free CFP-Ran/YFP-importin-beta FRET ratio. inhibition, % (no concentration beside the values). 300,000 compounds, 1.1% hits. AID 2216, 2009;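 active means most replicates above 15%; inconclusive means exactly half above 15%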;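 further: 0% = DMSO wells and 100% = Ran loaded with GDP instead of GTP; wells of about 40 µL received 100 nL stock; the first replicate is given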
T cruzi inh: inhibitors of intracellular T. cruzi growth, primary screen, luminescence, NIH3T3 host cells; T. cruzi beta-gal in NIH3T3, 90 h; inhibition, % (concentration not given with the values); 300,000 compounds, 1.4% hits;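 active means mean inhibition across valid replicates above about 55%, limit read from the data; inconclusive means mean below that limit but half or more replicates reach it; inactive means mean below it, under half of replicates reach it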;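 further: signal also drops with host cell toxicity which is not excluded here; 0% = plate median of DMSO wells and 100% = zero luminescence signal; higher percent means less beta-gal luminescence so fewer parasites; stock transfer was 50 nL into about 50 µL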
FGF22 binding: binders of human FGF22 protein, primary screen, FGF22 synaptogenesis inhibitor project, biophysical, thermal shift, single point; Fibroblast growth factor 22 (Homo sapiens), Q9HCT0; recombinant FGF22 thermal shift, SYPRO orange fluorescence; percent of sucrose octasulfate shift, DMSO zero; calls only at 9.99 µM; 340,000 compounds, 1.5% hits; AID 651658, 2012;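 active means melting point raised past a set limit in the mean and every replicate; inconclusive means no clear call; three in four hits are not shown here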
Target sequence (Q9HCT0 whole entry, looked up): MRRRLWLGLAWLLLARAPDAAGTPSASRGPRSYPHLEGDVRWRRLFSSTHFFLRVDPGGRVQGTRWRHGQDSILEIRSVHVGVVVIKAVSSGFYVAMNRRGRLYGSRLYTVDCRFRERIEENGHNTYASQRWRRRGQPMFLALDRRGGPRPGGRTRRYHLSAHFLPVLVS
Beta cell apopt: inhibitors of cytokine-induced beta cell apoptosis, primary screen, luminescence | INS-1E cytokine-induced death, ATP luminescence, 48 h; percent of positive-control rescue, neutral wells zero | protection from apoptosis, % (concentration not given with the values) | 300,000 compounds, 0.8% hits | AID 435005, 2010;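 active means all replicates at 75% or more, or half of them and the mean; inconclusive means half reach 75% but not the mean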;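 further: 0% = cytokine-treated negative control wells and 100% = positive control rescue; higher means more ATP so stronger rescue from cytokine killing; wells of about 40 µL received 100 nL stock; the first replicate is given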
ALR H2O2 inh: inhibitors of human ALR sulfhydryl oxidase, primary screen, biochemical, H2O2 detection, HRP-luminol luminescence, single point; inhibition, % (test concentration not listed); FAD-linked sulfhydryl oxidase ALR (Homo sapiens), P55789; purified ALR, DTT oxidation; 290,000 compounds, 3.8% hits;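 active means mean and each replicate at 75% or more; inconclusive means only one of the two met; inactive means neither met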;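 further: stock transfer was 7.5 nL into about 7.5 µL; 0% = neutral wells and 100% = wells with inactivated enzyme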
Target sequence (P55789 whole entry, looked up): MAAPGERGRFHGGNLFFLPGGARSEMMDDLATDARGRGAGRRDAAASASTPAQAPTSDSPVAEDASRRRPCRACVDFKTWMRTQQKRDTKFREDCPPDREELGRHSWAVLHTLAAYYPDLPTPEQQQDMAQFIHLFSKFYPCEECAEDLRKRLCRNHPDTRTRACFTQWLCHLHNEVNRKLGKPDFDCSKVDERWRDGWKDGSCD
AF4-AF9 inh: inhibitors of AF4 peptide binding to AF9, primary screen, biochemical, AlphaScreen, biotin-AF4 peptide, FLAG-AF9, single point. Protein AF-9 (Homo sapiens), P42568. inhibition, % at 10 µM. 350,000 compounds, 0.47% hits;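 active means every replicate reaching a set inhibition limit, whatever the replicate mean, cut at about 25% in these data; inconclusive means mean inhibition reaches that limit but some replicates miss it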;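 further: 0% = plate neutral control median and 100% = total signal loss; the record names both 10 and 1 µM as test concentration; the first replicate is given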
Target sequence (P42568 whole entry, looked up): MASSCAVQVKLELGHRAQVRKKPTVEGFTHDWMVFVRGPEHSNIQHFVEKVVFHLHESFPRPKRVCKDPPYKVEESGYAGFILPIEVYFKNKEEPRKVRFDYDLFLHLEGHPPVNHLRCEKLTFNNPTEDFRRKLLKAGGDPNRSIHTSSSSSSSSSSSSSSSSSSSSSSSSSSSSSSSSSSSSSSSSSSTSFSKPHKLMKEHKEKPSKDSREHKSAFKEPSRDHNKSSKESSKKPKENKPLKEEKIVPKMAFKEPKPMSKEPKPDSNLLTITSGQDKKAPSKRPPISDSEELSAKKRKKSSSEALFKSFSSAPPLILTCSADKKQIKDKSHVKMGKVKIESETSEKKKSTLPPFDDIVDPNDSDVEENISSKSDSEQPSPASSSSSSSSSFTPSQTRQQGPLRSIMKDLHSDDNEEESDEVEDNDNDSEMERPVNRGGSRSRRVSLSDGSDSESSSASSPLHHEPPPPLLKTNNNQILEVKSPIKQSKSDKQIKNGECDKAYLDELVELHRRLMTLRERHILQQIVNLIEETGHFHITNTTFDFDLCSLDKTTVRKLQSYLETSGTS
rRNA inh HTS OD600: also measured in rRNA inh HTS; calls as there; OD600 change, %; measured here: OD600 growth;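 optical density of the mix in the first replicate; 0 = DMSO median and -100 = no signal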
rRNA inh HTS RFP: further read-out of rRNA inh HTS, marked with its call; RFP signal change, %; measured here: RFP humanized mutant strains;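 first replicate; 0 = DMSO median and -100 = no signal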
Active calls of the source: *; i = inactive; ? = inconclusive; . = not tested or not shown. This is a subset. The share of hits here may be higher or lower than overall.

SMILES	rRNA inh HTS	rRNA inh HTS OD600	rRNA inh HTS RFP	Calb FLC	RanGTP-Impb inh	T cruzi inh	FGF22 binding	Beta cell apopt	ALR H2O2 inh	AF4-AF9 inh
O=C(/C=C/C(=O)NCc1cccs1)NCc1cccs1	20.6	16.0	2.4	9.3	1.4	-5.2	i	-0.4	-1.5	-2.2
COCCCNC(=O)CN(c1cccc(Cl)c1C)S(C)(=O)=O	.	.	.	1.2	-0.5	-16.0	.	-2.3	-2.1	.
Cc1cn(C2CC(OC(=O)C(C)C)C(CO)O2)c(=O)[nH]c1=O (stereo not given)	8.8	5.9	0.8	.	.	.	i	-2.7	.	-4.0
COc1cc(-c2noc(C)c2C#Cc2nccn2C)cc(OC)c1OC	-24.5	-50.4	3.7	-1.4	-2.7	19.4	i	-8.3	2.7	2.6
C[C@H]1[C@H](C)CC[C@]2(C(=O)O)CC[C@]3(C)C(=CC[C@@H]4[C@@]5(C)CC[C@H](O)C(C)(C)[C@@H]5CC[C@]43C)[C@H]12	.	.	.	.	-3.9	2.9	i	22.4	-2.9	5.4
Cc1ccc(SCC(=O)NC(=O)Nc2ccc3c(c2)OCCO3)cc1C	7.2	8.0	-2.8	-9.4	-1.3	11.7	i	-7.2	-7.1	-6.4
Cc1ccc(NC(=O)NC(=S)NC(=O)c2ccccc2)cc1	.	.	.	27.5	5.4	-2.5	.	7.9	2.1	.
N#CC1(NC(=O)Cn2cc(C(F)(F)F)ccc2=O)CCCC1	9.6	14.0	-1.8	.	.	.	i	1.4	1.4	-1.6
CCOC(=O)Cn1c(=NC(=O)c2ccc([N+](=O)[O-])s2)sc2ccccc21	.	.	.	-1.2	-0.6	51.4	i	18.6	-44.0	-1.8
O=C(C1CC(=O)N(c2ccccc2)C1)N1CCN(c2ccccc2F)CC1 (stereo not given)	-1.4	-2.2	1.2	0.6	?	-2.0	i	1.5	-18.6	-1.4
O=C(CSc1n[nH]c(-c2ccccn2)n1)Nc1ccc(F)cc1	-31.3	-59.3	0.9	11.6	2.1	-11.2	i	.	-6.1	1.4
Cc1ccc2nc(NCC(=O)O)nc(-c3ccccc3)c2c1	.	.	.	13.9	22.2*	23.6	.	2.8	-8.2	.
CCn1c(SCC(=O)c2ccccc2)nnc1-c1cnccn1	.	.	.	-6.4	2.9	-5.8	.	-5.0	51.2	.
Cc1nnc(NC(=O)CN2C(=O)c3ccccc3S2(=O)=O)s1	.	.	.	-9.7	-0.4	-0.1	.	-9.3	.	.
CC(C)(CCO)Nc1ncnc2onc(-c3ccc(F)cc3)c12	7.0	8.1	2.4	-4.3	0.5	-4.7	i	7.6	-23.7	2.3
NS(=O)(=O)c1ccc(NC(=O)CSc2nc(Nc3ccccc3)nc(N3CCOCC3)n2)cc1	-4.2	-19.9	4.5	-1.4	?	26.4	i	0.6	4.4	0.0
O=C(c1cc(COc2ccc(F)cc2F)on1)N1CC[C@@H]2CCCC[C@H]2C1	7.6	11.0	1.2	-1.4	0.7	24.0	i	-1.5	-2.0	-0.6
Cc1c(CCOC(=O)C23CC4CC(CC(C4)C2)C3)sc[n+]1Cc1ccccc1	-27.2*	-14.7*	1.5*	57.2	3.5	1.0	i	10.1	-4.4	2.4
COC(C[C@H](O)C[C@@H](O)[C@@H](C)OCc1ccccc1)OC	5.4	23.0	20.2	-6.8	-2.8	-14.2	i	.	.	3.7
Cc1ccccc1CS(=O)(=O)CC(O)CN1CCCC1=O (stereo not given)	12.7	6.7	-0.9	-4.4	-2.4	-13.9	i	-7.0	-2.8	-2.2
COc1cc(Cl)c(C)cc1NC(=O)CSc1ccc(NC(C)=O)cc1	-1.3	-2.9	-14.4	-17.2	-1.9	-3.3	i	6.8	?	-1.5
COc1ccc(CNC(=O)C2CCCN2CCc2ccccc2)cc1OC (stereo not given)	6.9	7.4	3.4	-7.3	-2.3	28.4	i	-7.9	-5.6	0.4
COc1ccc(/C(C#N)=C/c2ccccn2)cc1	-6.9	-8.3	0.2	-6.2	7.8	-5.7	i	6.9	10.0	8.4
CCn1c(=O)c(=O)[nH]c2cc(C(=O)Nc3ccc(S(=O)(=O)N4CCCC4)cc3)ccc21	5.7	12.4	-2.1	57.3	5.7	-6.3	.	-4.1	-13.7	.
c1cncc(C2Nc3ccccc3-c3nc4ccccc4n32)c1 (stereo not given)	22.3	19.1	2.3	9.2	-15.4	-8.9	i	-7.1	.	-19.0
COC(=O)[C@@H]1C[C@H]1[C@@H](NS(=O)(=O)c1ccccc1)c1ccccc1	-0.7	0.6	0.5	0.7	0.6	-3.9	i	5.4	-3.5	.
CCOC(=O)c1cc(-c2ccc(C)cc2)n(CC(=O)NCc2ccco2)c1C	4.2	3.6	-1.9	3.8	3.7	-23.2	i	-4.4	4.3	-6.0
COc1cccc(-c2cc(C(=O)N3CCN(S(=O)(=O)c4ccccc4)CC3)[nH]n2)c1	-1.2	-0.9	0.1	-5.8	-4.8	10.9	i	12.2	-12.3	0.9
COc1ccc(C(=O)NN=C2CCCC2)cc1	13.4	9.5	-0.6	0.0	28.5*	-3.7	i	.	58.9	-2.4
COc1ccccc1OCCNC(=O)c1c(-c2ccccc2Cl)noc1C	-11.2	-11.2	1.4	-18.0	0.5	5.8	i	3.7	-21.7	-0.8
Cc1noc(C)c1COc1ccc(C(=O)O)cc1	5.6	0.7	1.1	-7.5	-1.4	4.7	.	1.4	-2.2	1.1
COc1ccc(CCNC(=O)c2cc(-c3ccco3)nc3ccccc23)cc1	7.3	2.8	4.0	-8.0	-2.4	2.8	i	-3.7	8.0	-2.2
COc1c(-c2ccc(O)cc2)oc2cc(O)cc(O)c2c1=O	-20.2*	-0.1*	4.5*	.	.	.	i	.	97.6*	-0.4
COc1cccc(-c2cc(C(=O)Nc3c(C)nn(Cc4ccccc4)c3C)no2)c1	-31.2	-37.4	-8.1	7.2	.	-5.0	i	6.4	-5.6	9.0
CC(C)C1NC(=S)N(Cc2ccccc2)C1=O (stereo not given)	.	.	.	-1.6	6.5	-7.4	.	-4.8	1.4	.
CCN(CC)S(=O)(=O)c1ccc2oc(C(=O)N3CCc4ccccc4C3)c(C)c2c1	.	.	.	18.4	3.5	0.8	.	2.9	-3.8	.
O=[N+]([O-])c1cc(-c2nnc(N3CCOCC3)c3ccccc23)ccc1N1CCOCC1	-35.3*	-25.1*	-0.1*	?	-3.6	7.2	i	3.4	-2.0	7.2
O=C(CN(C(=O)c1ccccc1Cl)C1CCCCC1)Nc1ccc(Cl)c([N+](=O)[O-])c1	.	.	.	21.8	1.2	35.9	.	15.5	-0.1	.
O=C(Nc1nnc(SCc2ccc(F)cc2)s1)C1Cc2ccccc2CN1C(=O)c1ccco1 (stereo not given)	.	.	.	20.8	-0.1	4.3	.	-2.2	.	.
CC(C)(C)c1ccc2c(c1)N(CC(=O)N1CCOCC1)C(=O)CO2	7.4	10.3	-0.5	-3.4	2.0	-10.8	i	-1.9	-3.4	-1.4
O=C(CSc1nc(Nc2ccccc2)nc(N2CCOCC2)n1)Nc1cccc([N+](=O)[O-])c1	-0.3	-3.6	2.1	5.6	5.2	45.6	i	17.2	-9.6	6.2
COc1cc(C)c(Br)cc1S(=O)(=O)NCc1ccccc1	18.2	10.3	-0.6	21.4	1.0	-5.0	i	-6.5	10.3	-41.7
Cc1nc(NC(=O)c2ccco2)sc1C(=O)O	10.3	6.9	1.6	20.0	2.0	-13.1	i	52.5	3.4	-0.6
CCCCCn1c(SCCOCC)nc2c1c(=O)[nH]c(=O)n2C	-0.3	4.2	15.6	1.8	7.1	15.6	i	4.6	-15.7	-1.9
CS(=O)(=O)N1CC2CCCN2c2cc(C(F)(F)F)ccc21 (stereo not given)	-33.1	-32.1	1.1	3.5	11.7	10.8	i	0.0	45.7	2.9
Cc1c(C(=O)N(C)C(C)c2ccncn2)oc2c(F)cccc12 (stereo not given)	0.6	-4.6	-0.7	23.8	-1.1	-4.0	i	-12.4	-1.3	-4.0
CCC(=O)N=c1sc2ccccc2n1-c1ccccc1	8.8	12.4	1.5	10.2	?	0.9	i	.	7.5	-3.4
Cc1cccc(C)c1OCC(O)CN1CCCCC1 (stereo not given)	16.1	9.2	-0.6	2.0	-2.1	-1.5	i	-11.9	-3.7	0.9
O=C1/C(=C/c2ccsc2)N2CCC1CC2	9.0	12.6	-0.8	-22.1	-0.4	5.1	i	-2.8	-1.3	-2.7
Cc1cccc(-c2oc3ccc(-c4ccc5c(c4)OCO5)cc3c2C#Cc2cncn2C)c1	23.9	10.8	1.8	.	.	.	i	-0.8	-9.4	.
O=C(CCC1CC(=O)Nc2ccccc21)NCc1ccc(F)cc1 (stereo not given)	1.0	-0.2	-1.9	-11.0	3.0	-1.3	i	-1.9	-19.2	6.2
O=C(NCc1ccco1)C12CC3CC(C1)CC(C(=O)NCc1ccco1)(C3)C2	.	.	.	-4.3	-0.2	1.6	.	-3.1	2.8	.
Cc1nnc(SCc2nnc(-c3cccs3)o2)n1C1CCCCC1	-0.5	4.5	0.6	?	4.1	6.3	i	-0.6	-0.9	0.4
O=C(NCc1ccccn1)c1cc(-c2ccccc2Cl)on1	.	.	.	-2.2	1.8	7.8	.	-7.9	0.3	.
CC(C)(CC(=O)O)CC(=O)N1CCN(c2nc3cc(Cl)ccc3s2)CC1	.	.	.	-2.5	-0.3	-13.8	.	1.1	-2.9	.
CCCCNC(=O)Cc1c(OC)ccc2cc(Br)ccc12	.	.	.	-26.7	-1.2	15.8	.	2.1	-2.9	.
Cc1sc2nc(CSC(C)C(=O)Nc3ccccn3)[nH]c(=O)c2c1C (stereo not given)	13.0	0.4	5.1	.	.	.	i	-6.6	3.3	-0.8
O=C(/C=C/c1cccc2ccccc12)N1CCOCC1	11.1	5.5	1.4	-4.6	-1.2	3.1	i	.	-8.1	0.0
CCN1CCCC1CNC(=O)C(=O)Nc1ccccc1 (stereo not given)	7.8	3.0	0.2	-8.7	0.5	-2.1	i	-4.2	.	-1.7
O=S(=O)(c1ccc2nc(COc3ccccc3)[nH]c2c1)N1CCOCC1	.	.	.	2.3	-1.3	0.2	.	.	-5.5	.
